Source: PubChem
BJeLR viability = BJeLR cell viability loss; BJeLR (HRASV12) viability, CellTiter-Glo ATP luminescence, 48 h; reference of the scale not given here; inhibition, % (test concentration not listed); actives 0.17% (n = 300,000);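 active = replicate mean above 50%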;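 also: 50 nL library stock added to about 25 µL; numbers are from one replicate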
Sa RN4220 lethal = kills Staphylococcus aureus RN4220; inhibition, % (test concentration not listed); actives 0.33% (n = 330,000); S. aureus RN4220 growth, OD600, 16 h;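 active = z-score of -3 or lower and OD600 up to 0.18 on both plates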;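 also: plate controls were untreated cells for no effect and reference antibiotic for full effect; stock transfer was 100 nL into about 80 µL; one replicate is shown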
Bead autofluor = flagged as autofluorescent in microsphere protease counterscreen. compound autofluorescence counterscreen, microsphere flow cytometry; stronger effect = higher value. actives 3.1% (n = 360,000). AID 624483. fluorescence intensity (concentration not given with the values);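 active = at least 3 SD above the mean of all compounds, about 16000 in these data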;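 also: 100 nL of 1 mM stock went into each well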
Mtb hypoxia inh = Mtb hypoxia fluorescent reporter inhibition; actives 0.1% (n = 300,000); AID 1159583; M. tuberculosis hypoxia-regulated fluorescent reporter, fluorescence; fluorescence inhibition, % (test concentration not listed);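 active = 35 to 45% if threefold the growth effect, above 45% if 1.5-fold the growth effect; inactive = the rest, general growth blockers included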;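 also: wells of about 50 µL received 100 nL stock; 0% = vehicle wells and 100% = reference inhibitor wells; whole bacteria with a GFP reporter of the hypoxia response; strong numbers were not always called active; many hits fall short of the cut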
ugtP null kill = growth inhibition of S. aureus ugtP deletion strain; S. aureus RN4220 ugtP deletion, OD600 growth, 16 h; some inactives read as strong as hits; growth inhibition, % (concentration not given with the values); actives 0.54% (n = 330,000);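 active = z-score under -3 and OD600 up to 0.15 on both plates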;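 also: plate controls were untreated wells for no effect and antibiotic for full effect; wells of about 80 µL received 100 nL stock; the first replicate is given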
PrP UTR inh = suppresses PrP 5' UTR mRNA reporter expression. inhibition, % (no concentration beside the values). actives 0.35% (n = 340,000). cell-based PrP 5' UTR mRNA reporter, plate reader;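 active = every replicate at 50% or more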;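 also: 0 = median of the neutral control wells; tested in H4 reporter cells; numbers are from one replicate; inactives centre near -14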
Mtb hypoxia inh growth = recorded beside Mtb hypoxia inh, whose call it bears; growth inhibition, %; measured here: M. tuberculosis growth (absorbance);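 0% = vehicle and 100% = reference antibiotic; read after six days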
* = called active by the depositor; / = not tested or not shown.

1. Cc1cccc(CCNC(=O)C2CCN(S(=O)(=O)c3cccc4nsnc34)CC2)c1
2. O=C(Nc1ccccc1C(=O)NC(Cc1ccccc1)C(=O)O)c1ccco1 (stereo unspecified)
3. Cc1ccc(C)c(NC(=O)C2CC(O)CN2C(=O)Oc2ccccc2)c1 (stereo unspecified)
4. C=CCN1C(=O)NC(=O)/C(=C/c2ccc(OCC(=O)Nc3ccc(C)cc3)cc2)C1=O
5. Cc1nn(-c2ccccc2)c(N2CCCC2)c1/C=N/Nc1ccc(S(N)(=O)=O)cc1[N+](=O)[O-]
6. CCC(C)NCCOc1ccccc1C (stereo unspecified)

assay / compound,1,2,3,4,5,6
BJeLR viability,-4,-2,2,-1,19,-2
Sa RN4220 lethal,6.0,-0.7,-2.1,0.8,/,/
Bead autofluor,8957,3988,4531,3938,1753,4196
Mtb hypoxia inh,4,-1,13,-3,/,/
Mtb hypoxia inh growth,9,-23,1,-2,/,/
ugtP null kill,6,-5,-1,3,/,/
PrP UTR inh,-9,-21,-14,-30,-10,-26

7. Cc1c(C(=O)COC(C)(C)C)[nH]c2ccccc12
8. Cc1sc2ncnc(SCC(=O)NC(C)C(C)C)c2c1C (stereo unspecified)
9. Cc1c(OCC(=O)NCC(O)c2ccccc2)ccc2c3c(c(=O)oc12)CCCC3 (stereo unspecified)
10. c1cc(-c2cccs2)nc(-c2cccs2)c1
11. COc1ccc(S(=O)(=O)NN(C)C(=O)c2nn(-c3ccccc3)ccc2=O)cc1
12. CC(=O)Nc1ccc(NC(=O)C(C)OC(=O)c2ccc(S(=O)(=O)N3CCCCCC3)cc2)cc1 (stereo unspecified)

assay / compound,7,8,9,10,11,12
BJeLR viability,-5,13,-6,-1,-3,/
Sa RN4220 lethal,4.9,4.9,7.0,1.5,-2.4,12
Bead autofluor,4817,4378,6109,2574,3607,2944
Mtb hypoxia inh,/,16,2,14,-3,8
Mtb hypoxia inh growth,/,5,6,1,4,-2
ugtP null kill,-12,1,5,28,2,17
PrP UTR inh,-16,-13,-8,-7,-2,-14

13. COC(=O)c1ccc(N=NNc2cccc(Br)c2)cc1
14. CCCCN(C)C(=O)C1CCC(=O)N(c2cc(OC)c(OC)c(OC)c2)C1c1ccc(OC)cc1 (stereo unspecified)
15. O=C(CN1C(=O)S/C(=C\c2cccs2)C1=O)Nc1ccc(O)c(C(=O)O)c1
16. CCOC(=O)N1CCN(S(=O)(=O)c2ccc(F)cc2)CC1
17. Cc1cccc(OCC(=O)N/N=C\c2cn(C)c3ccccc23)c1
18. CCCCn1c(O)c(C=Nc2c(C)n(C)n(-c3ccccc3)c2=O)c(=O)[nH]c1=O

assay / compound,13,14,15,16,17,18
BJeLR viability,/,0,0,1,-4,3
Sa RN4220 lethal,-3.6,-1.7,-4.2,0.9,/,4.4
Bead autofluor,2015,3265,5351,6623,4702,2504
Mtb hypoxia inh,9,4,0,1,/,7
Mtb hypoxia inh growth,7,10,2,0,/,4
ugtP null kill,-29,3,-2,8,/,0
PrP UTR inh,-70,-6,-6,-17,-43,-22

19. COc1ccc(CNCc2ccncc2)c(OC)c1
20. O=C(Nc1cccc(-c2cn3ccccc3n2)c1)c1cc2ccccc2oc1=O
21. COc1cccc(OCC(=O)Nc2ccccc2NC(C)=O)c1
22. CCCc1c(C(=O)NN=Cc2ccncc2)nnn1-c1nonc1N
23. C/C(=N\NC(=O)CN(c1ccccc1)S(=O)(=O)c1ccccc1[N+](=O)[O-])C(C)(C)C
24. Cc1cccc(Nc2nc(N)nc(CSC(=S)N3CCOCC3)n2)c1

assay / compound,19,20,21,22,23,24
BJeLR viability,6,6,7,/,7,3
Sa RN4220 lethal,1.9,30,5.4,-2.2,/,1.5
Bead autofluor,4132,9670,3513,/,10192,2330
Mtb hypoxia inh,3,4,-76,9,/,17
Mtb hypoxia inh growth,-4,0,-18,-3,/,13
ugtP null kill,2,14,0,-2,/,-1
PrP UTR inh,-9,-38,-15,/,0,-32

25. COc1ccc2c(c1)c(C(=O)O)c(C)n2-c1ccccc1
26. COc1ccc(CC(=O)NN=C(C)CC(=O)Nc2ccc(N(C)C)cc2)cc1OC
27. Cc1ccc(-n2c(O)c(/C=N/Nc3ccccc3)c(=O)[nH]c2=O)cc1C
28. Cc1ccc(-n2nc3c(c2NC(=O)c2ccco2)CS(=O)(=O)C3)c(C)c1
29. COC(=O)CNC(=O)c1ccc(NS(=O)(=O)c2cc([N+](=O)[O-])ccc2Cl)cc1
30. O=C(CN1C(=O)NC2(CCCC2)C1=O)N1CCN(Cc2ccccc2)CC1

assay / compound,25,26,27,28,29,30
BJeLR viability,-9,/,3,-2,2,9
Sa RN4220 lethal,2.6,3.6,0.4,1.7,1.3,2.8
Bead autofluor,5597,/,/,5577,4260,7254
Mtb hypoxia inh,9,-2,5,8,-1,15
Mtb hypoxia inh growth,9,-6,1,4,2,2
ugtP null kill,-1,3,4,6,9,3
PrP UTR inh,-21,/,/,-16,-18,-20

31. Clc1ccc(CSc2ncn[nH]2)cc1
32. COc1cc(/C=C/[N+](=O)[O-])ccc1OCc1cccc(C(=O)O)c1
33. Cc1nn(C)c(C)c1Nc1ccc(N2C(=O)C3C4C=CC(C4)C3C2=O)cc1[N+](=O)[O-] (stereo unspecified)
34. CC(=O)c1sc(NC(=O)C2CCN(c3ncnc4sc(C)c(C)c34)CC2)nc1-c1ccccc1
35. CCOC(=O)Cc1csc(NC(=O)Nc2cccc(Cl)c2)n1
36. CC1CCN(S(=O)(=O)Cc2ccccc2Cl)CC1

assay / compound,31,32,33,34,35,36
BJeLR viability,4,12,-1,2,5,-5
Sa RN4220 lethal,1.7,-0.4,3.3,6.6,-0.9,2.9
Bead autofluor,3145,/,6438,5916,2398,2976
Mtb hypoxia inh,3,5,2,4,1,11
Mtb hypoxia inh growth,7,7,8,10,4,10
ugtP null kill,3,6,7,-2,-37,1
PrP UTR inh,-14,/,-9,1,-11,-10

37. CC1C(=O)N2CCCc3cc(NC(=O)C(=O)NCCCc4ccccc4)cc1c32 (stereo unspecified)
38. COc1ccc(S(=O)(=O)Oc2ccccc2C(=S)N2CCOCC2)cc1
39. O=C(O)c1cc(C(=O)O)c(-c2ccccc2)c(C(=O)O)c1
40. O=C(c1ccco1)n1nc(-c2ccco2)nc1SCc1ccccc1
41. CCN1CCN(C(CNS(=O)(=O)c2ccc(Cl)cc2)c2ccccc2)CC1 (stereo unspecified)
42. CCc1nc(N2CCC(C)CC2)c2oc3ccccc3c2n1

assay / compound,37,38,39,40,41,42
BJeLR viability,1,1,5,4,-3,-7
Sa RN4220 lethal,2.6,/,2.6,2.7,2.4,24
Bead autofluor,6077,4498,22323*,21774*,4667,11282
Mtb hypoxia inh,-12,/,4,1,8,9
Mtb hypoxia inh growth,-15,/,6,6,2,6
ugtP null kill,3,/,-3,4,5,-16
PrP UTR inh,-8,-6,4,-27,-13,-27

43. O=C(CNC(=S)N(CCCN1CCOCC1)Cc1cccs1)NCc1ccccc1
44. CCc1nnc(NC(=O)c2nc(Cl)ccc2Cl)s1
45. CC(CP(=O)(O)O)NC(=O)Cc1ccccc1 (stereo unspecified)
46. CCC1(c2ccccc2)NC(=O)N(CC(=O)Nc2ccc(S(=O)(=O)NC3=NCCCCC3)cc2)C1=O (stereo unspecified)
47. COc1cc(OC)cc(-c2c(-c3cccs3)c3cc(-c4ccc(OC)cc4F)ccc3n2C)c1
48. CCC(c1nnnn1C(C)C)N1CCN(C2CCCC2)CC1 (stereo unspecified)

assay / compound,43,44,45,46,47,48
BJeLR viability,5,2,-4,-7,/,2
Sa RN4220 lethal,6.0,3.4,2.0,0.9,2.2,-0.1
Bead autofluor,4732,5410,9876,6423,3074,4670
Mtb hypoxia inh,9,6,13,4,0,/
Mtb hypoxia inh growth,5,13,-3,2,4,/
ugtP null kill,10,7,5,7,2,3
PrP UTR inh,-13,-12,-4,-11,-10,-4

Gathered by group, the entries above containing a halogen (nine)
13. COC(=O)c1ccc(N=NNc2cccc(Br)c2)cc1
16. CCOC(=O)N1CCN(S(=O)(=O)c2ccc(F)cc2)CC1
29. COC(=O)CNC(=O)c1ccc(NS(=O)(=O)c2cc([N+](=O)[O-])ccc2Cl)cc1
31. Clc1ccc(CSc2ncn[nH]2)cc1
35. CCOC(=O)Cc1csc(NC(=O)Nc2cccc(Cl)c2)n1
36. CC1CCN(S(=O)(=O)Cc2ccccc2Cl)CC1
41. CCN1CCN(C(CNS(=O)(=O)c2ccc(Cl)cc2)c2ccccc2)CC1 (stereo unspecified)
44. CCc1nnc(NC(=O)c2nc(Cl)ccc2Cl)s1

assay / compound,13,16,29,31,35,36,41,44
BJeLR viability,/,1,2,4,5,-5,-3,2
Sa RN4220 lethal,-3.6,0.9,1.3,1.7,-0.9,2.9,2.4,3.4
Bead autofluor,2015,6623,4260,3145,2398,2976,4667,5410
Mtb hypoxia inh,9,1,-1,3,1,11,8,6
Mtb hypoxia inh growth,7,0,2,7,4,10,2,13
ugtP null kill,-29,8,9,3,-37,1,5,7
PrP UTR inh,-70,-17,-18,-14,-11,-10,-13,-12

47. COc1cc(OC)cc(-c2c(-c3cccs3)c3cc(-c4ccc(OC)cc4F)ccc3n2C)c1

assay / compound,47
BJeLR viability,/
Sa RN4220 lethal,2.2
Bead autofluor,3074
Mtb hypoxia inh,0
Mtb hypoxia inh growth,4
ugtP null kill,2
PrP UTR inh,-10

Further entries follow.
49. CCOc1ccc(C2C(C(=O)Nc3cc(C)on3)c3ccccc3C(=O)N2CCN2CCOCC2)cc1 (stereo unspecified)
50. O=C(O)C1(Nc2ccccc2)CCCC1
51. COc1ccc(C(=O)N2CCCc3ccccc32)cc1
52. COC(=O)CSc1ncc(C#N)c(N)n1
53. O=C(NN=Cc1ccc[nH]1)c1sc2ccccc2c1Cl
54. c1ccc(-c2ccccc2OCCN2CCOCC2)cc1

assay / compound,49,50,51,52,53,54
BJeLR viability,3,/,3,-14,/,-12
Sa RN4220 lethal,-0.7,4.0,5.2,4.7,24,3.1
Bead autofluor,3391,2816,7695,6845,/,2474
Mtb hypoxia inh,6,8,2,1,-7,7
Mtb hypoxia inh growth,0,-9,8,3,2,6
ugtP null kill,5,9,16,-2,-12,-2
PrP UTR inh,-2,-11,-9,-3,/,-19

55. Oc1[nH]c2ccc(Br)cc2c1N=NC(=S)Nc1ccc(F)cc1
56. CC(=O)Oc1ccc(-c2cccc(C(=O)NCCO)c2)cc1
57. C=CCNC(=S)NN=Cc1ccc(OCc2ccccc2)cc1
58. Cc1cccc(N=Cc2c(O)c3ccccc3oc2=O)n1
59. CN1CCN(S(=O)(=O)c2cccc(C(=O)Nc3cccc([N+](=O)[O-])c3)c2)CC1
60. COc1cc(C(CC(=O)Nc2cc(C)ccn2)N2Cc3ccccc3C2=O)cc(OC)c1OC (stereo unspecified)

assay / compound,55,56,57,58,59,60
BJeLR viability,9,-1,/,/,2,-1
Sa RN4220 lethal,99*,-5.1,4.9,-13,3.3,2.4
Bead autofluor,4414,2077,/,/,6100,3808
Mtb hypoxia inh,12,-8,8,11,16,2
Mtb hypoxia inh growth,3,6,1,16,1,-4
ugtP null kill,100*,5,-2,-2,12,1
PrP UTR inh,-15,-20,/,/,-9,-1

61. COc1ccc(NC(=S)NNC(=O)CNc2ccc(Cl)cc2)cc1
62. CCn1nc(C(=O)Nc2nc3ccccc3[nH]2)c2ccccc2c1=O
63. CN(Cc1ccccc1)C(=O)COC(=O)c1ccc2ccccc2n1
64. CC(CC(=O)Nc1ccc2c(c1)OCCO2)=NNC(=O)c1cccc(O)c1
65. O=C(NN=Cc1cc([N+](=O)[O-])ccc1N1CCCC1)c1ccccn1
66. CCn1c(=O)c2ccccc2n2c(SCC(N)=O)nnc12

assay / compound,61,62,63,64,65,66
BJeLR viability,/,-4,-3,/,/,26
Sa RN4220 lethal,0.2,4.9,3.5,3.8,3.3,4.5
Bead autofluor,2096,2413,4755,/,/,3605
Mtb hypoxia inh,-4,-12,14,14,9,1
Mtb hypoxia inh growth,4,-2,8,-6,6,11
ugtP null kill,-17,-8,7,1,2,5
PrP UTR inh,-15,-8,-31,/,/,-9

67. NC(=O)/C(N=Nc1ccccc1)=N/Nc1ccccc1
68. S=c1sc2c(N3CCN(Cc4ccccc4)CC3)ncnc2n1-c1ccccc1
69. CCOc1cnc(-c2ccc(OC)cc2)o1
70. COc1ccc2[nH]cc(/C=C/C(=O)c3ccccc3)c2c1

assay / compound,67,68,69,70
BJeLR viability,-4,3,3,-1
Sa RN4220 lethal,/,0.7,3.0,2.0
Bead autofluor,3931,2603,2483,5796
Mtb hypoxia inh,/,/,/,22
Mtb hypoxia inh growth,/,/,/,16
ugtP null kill,/,3,-4,-15
PrP UTR inh,-9,-15,-107,-163
